NPYLR7 agonist: activates Aedes aegypti NPYLR7 receptor; HEK293T NPYLR7/Galpha15, GCaMP6s calcium fluorescence; activation, % at 10 µM; hit rate 0.15% among 270,000; AID 1259423; in the data active = activation above about 40%;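 also: 0% = vehicle and 100% = reference agonist at the receptor; some compounds past the cut are filed as inactive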
NPYLR7 agonist max-min: also measured in NPYLR7 agonist; calls as there; activation, %; measured here: Max-Min RFU normalised activation; some inactives read as strong as hits;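 span of the calcium signal over five minutes; 0% = vehicle and 100% = native peptide agonist; compound fluorescence can raise it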
* marks the source's active call; other numbers are inactive results; & = joins results of further samples.

| structure | NPYLR7 agonist max-min | NPYLR7 agonist |
| --- | --- | --- |
| COC(=O)c1ccc(CSc2nnc(C(C)Oc3ccc(Cl)cc3C)o2)o1 (stereo not drawn) | 4 | 5 |
| O=C(Cc1cccs1)N(CC(=O)N1CCc2sccc2C1c1ccc(Cl)cc1Cl)CC1CCCO1 (stereo not drawn) | -10 | -6 |
| CN1C(=O)CC(C(=O)Nc2ccccc2F)SC1=Nc1cccc(C(F)(F)F)c1 (stereo not drawn) | -1 | 0 |
| CCCc1cnc(C)nc1N1C[C@@H]2[C@H](C1)[C@H]1CC[C@@H]2O1 | -3 | -4 |
| O=C(c1ccccc1-c1ccc(C(F)(F)F)cc1)N1CCC(c2ccccc2)CC1 | -9 | -6 |
| CN(C)CCn1ccc2cc(C(=O)Nc3ccc(F)cc3)ccc21 | 7 | 4 |
| CCCCCCCC(=O)N(CCOC)CC(=O)N(CCc1c[nH]c2ccccc12)Cc1ccc(C(F)(F)F)cc1 | -6 | -10 |
| Cc1cc(NS(=O)(=O)c2ccc(NS(C)(=O)=O)cc2)no1 | -2 | -1 |
| CNC(=O)c1nn(C)cc1[N+](=O)[O-] | 2 | -1 |
| NC(=O)c1ccsc1NC(=O)CN1CCCC1c1cccs1 (stereo not drawn) | 10 | 5 |
| CN(C)CCN1C(=O)c2cccc3cc(N)cc(c23)C1=O | -3 | 4 |
| CCCCCN(CC(=O)N1CCc2sccc2C1c1ccccc1C)S(C)(=O)=O (stereo not drawn) | 16 | 11 |

4 structures from above, arranged by SMILES length, falling.
| structure | NPYLR7 agonist max-min | NPYLR7 agonist |
| --- | --- | --- |
| O=C(Cc1cccs1)N(CC(=O)N1CCc2sccc2C1c1ccc(Cl)cc1Cl)CC1CCCO1 (stereo not drawn) | -10 | -6 |
| CCCc1cnc(C)nc1N1C[C@@H]2[C@H](C1)[C@H]1CC[C@@H]2O1 | -3 | -4 |
| CN(C)CCn1ccc2cc(C(=O)Nc3ccc(F)cc3)ccc21 | 7 | 4 |
| NC(=O)c1ccsc1NC(=O)CN1CCCC1c1cccs1 (stereo not drawn) | 10 | 5 |

The listing picks up; the 5 compounds before the break are reprinted first.
| structure | NPYLR7 agonist max-min | NPYLR7 agonist |
| --- | --- | --- |
| Cc1cc(NS(=O)(=O)c2ccc(NS(C)(=O)=O)cc2)no1 | -2 | -1 |
| CNC(=O)c1nn(C)cc1[N+](=O)[O-] | 2 | -1 |
| NC(=O)c1ccsc1NC(=O)CN1CCCC1c1cccs1 (stereo not drawn) | 10 | 5 |
| CN(C)CCN1C(=O)c2cccc3cc(N)cc(c23)C1=O | -3 | 4 |
| CCCCCN(CC(=O)N1CCc2sccc2C1c1ccccc1C)S(C)(=O)=O (stereo not drawn) | 16 | 11 |
| O=C(Nc1cccc(-c2cscn2)c1)C1CCN(Cc2cccc(-c3ccco3)c2)CC1 | -5&1 | -4&9 |
| COc1cccc(C(=O)Nc2cc(C)nn2-c2ncnc3c2cnn3-c2cccc(C)c2C)c1 | 3 | 4 |
| COc1ccc(CN2CCNC(=O)C2CC(=O)NCC(C)(C)N2CCOCC2)cc1C (stereo not drawn) | -2 | 3 |
| CCOc1ccc(Nc2nc(C)cc(C)c2C#N)cc1 | -6 | -3 |
| CC(=O)c1ccc(NC(=O)CSc2ccc(-c3ccc(-n4ccnc4)cc3)nn2)cc1 | -5 | -13 |
| COCCCNc1ncnc2c1c(-c1ccccc1)cn2-c1ccc(Br)cc1 | 2 | 2 |
| Cc1cc(Sc2ncnc(N)c2[N+](=O)[O-])ncn1 | 0 | 5 |
| CCOc1ncccc1-c1ccc(-c2nn[nH]n2)cc1 | -8 | -9 |
| O=C(c1cccs1)N1CCN(c2cc(Oc3ccc(Cl)cc3)ncn2)CC1 | -6 | -12 |
| COc1ccc(C(=O)N2CCC3(CC2)OCC(C(=O)NCc2ccccn2)N3C(=O)c2ccccc2C)cc1OC (stereo not drawn) | 10 | 0 |
| CCCOc1cccn2c(N(C)C(=O)c3ccc(C)cc3)c(CC)nc12 | 1 | -20 |
| Cc1nc2c(=O)n(CC(=O)Nc3ccccc3)nc(-c3cccs3)c2s1 | -6 | -4 |
| COCC(=O)N1CCN(c2cc(Oc3ccc(F)cc3Cl)ncn2)CC1C (stereo not drawn) | 14 | 11 |
| COc1ccccc1N1CCN(c2ccc(N)cc2C(=O)NC(C)c2ccccc2)CC1 (stereo not drawn) | 1 | 3 |
| O=C(NN=Cc1ccc(-c2ccc([N+](=O)[O-])cc2)o1)c1ccncc1 | -8 | -2 |
| CCOc1ccc(-c2cc(C(=O)O)c3[nH]c(C)nc3n2)cc1 | -2 | -1 |
| CCNC(=O)c1coc(CN(Cc2ccc(F)cc2)Cc2ccccc2Cl)n1 | 5 | 1 |
| Cc1cc(N(C)C)ccc1NC(=O)c1ccsc1 | -1 | 1 |
| C=CCn1c(SCc2ccc(C(=O)N3CCN(c4ccccc4F)CC3)cc2)nnc1-c1cccc(OC)c1 | 10 | 4 |
| CCN(CCOc1ccccc1F)C(=O)c1cc(C(C)C)[nH]n1 | 0 | 0 |
| CC(C)(C)Sc1ccc(SC#N)s1 | -14 | -8 |
| Cc1nnc(NCC(c2ccccc2Cl)N(C)C)c(C#N)c1C (stereo not drawn) | 0 | 0 |
| O=C1CN(c2ccc(NC(=O)Cc3c(Cl)cccc3Cl)cn2)CCN1 | -5 | -2 |
| Cc1cccc(CNC(=O)c2sc(=O)n(Cc3c(C)cccc3C)c2C)c1 | 1 | 3 |
| O=C(CSc1ccc(C(=O)NCCc2cccc(Cl)c2)cn1)c1ccc(Cl)cc1 | -6 | -3 |
| Cc1noc(C)c1CC(=O)NCC12CC3CC(CC(C3)C1)C2 | 12 | 7 |
| COC(=O)N1CCN(C(C(=O)NCCc2ccc(OC)cc2)C2CCCC2)CC1 (stereo not drawn) | 3 | 1 |
| O=C(Nc1ccccc1C(=O)NCc1ccco1)c1cc(=O)c2ccccc2o1 | 13 | 17 |
| CCNC(=O)N(CCOC)CC(=O)N1CCN(c2ccc(-c3ccccc3)nn2)CC1 | 9 | 20 |
| Cc1cccc(OC(F)F)c1NC(=O)C1(C)CCN1C(=O)Cc1ccc(C(C)(C)C)cc1 (stereo not drawn) | 1 | 5 |
| CSc1nc(C(=O)N2CCCC(N3CCN(c4ccccc4C)CC3)C2)cs1 (stereo not drawn) | -2 | 1 |
| C=CCOCC(O)CN(Cc1c(C)nn(-c2ccccc2)c1Oc1ccccc1OC)CC1CCCO1 (stereo not drawn) | 8 | 6 |
| Cc1ccc(OCc2cc(C(=O)N3CCC(Cc4ccccc4)CC3)no2)cn1 | 2 | 5 |
| O=C(NC1CC2CCC(C1)N2Cc1ccoc1)c1c(F)c(F)c(F)c(F)c1F (stereo not drawn) | 15 | 4 |
| CCc1nc(CN(C)C(=O)C(=O)Nc2ccc(F)c(C)c2)cs1 | 0 | 0 |
| O=S(=O)(c1ccc(N2CCC(C(O)c3ccc(Cl)cc3)CC2)nc1)N1CCCC1 (stereo not drawn) | 25 | -2 |
| CCc1nc(=S)c2c([nH]1)-c1ccccc1CC21CCCCC1 | -4 | 0 |
| COc1ccccc1CN(Cc1ccc(F)cc1)CC(O)COc1ccc(Cl)cc1 (stereo not drawn) | 5 | 1 |
| COc1ccc2oc(=Nc3ccc(C(C)=O)cc3)c(C(N)=O)cc2c1 | -13 | -10 |
| CN(C)c1ccc(NC(=O)c2ccco2)cc1CN(Cc1ccccc1)S(=O)(=O)c1cccc(Cl)c1 | 21 | 19 |
| CCC(C(=O)N(CCOC)Cc1cc(NC(=O)c2ccccc2Cl)ccc1N(C)C)c1ccccc1 (stereo not drawn) | 10 | 0 |
| Cc1cc(C)nc(Nc2nc(C(N)Cc3ccc(F)cc3)cs2)n1 (stereo not drawn) | -10 | -5 |
| COc1ccc(-c2cnc(-c3ccc(CNC(=O)c4ccc(F)cc4)cc3)[nH]2)cc1 | 1 | 4 |
| O=c1c2ccccc2ncn1CC(O)COC1CCCc2ccccc21 (stereo not drawn) | -1 | -3 |
| C(=NNC1=Nc2cccc3cccc1c23)c1cccnc1 | -13 | -10 |
| COc1cc(CC(=O)N2CCC3(CC2)OCc2cc(-c4cccc(C#N)c4)ccc2O3)cc(OC)c1OC | -30 | -29 |
| CC(C)c1noc(C(C)N2CCN(Cc3nnc(C4CC4)o3)CC2)n1 (stereo not drawn) | 9 | 2 |
| O=C1CCCN1CCC1CCCCN1C(=O)NCc1ccc(Cl)cc1 (stereo not drawn) | 5 | 9 |
| O=C(c1cccs1)N1CCN(C2CCCC2)CC1 | 2 | 12 |
| Cc1cccc(NC(=O)NNC(=O)c2cccn(Cc3cccc(F)c3)c2=O)c1 | 1 | 5 |
| Cc1nn(CC(=O)Nc2sc(C)c(C)c2C(N)=O)c(C)c1[N+](=O)[O-] | -6 | -1 |
| CN(C)CCCN1C(=O)C(=O)C(=C(O)c2ccc(Cl)cc2)C1c1ccccc1 (stereo not drawn) | 2 | 2 |
| CCC(=O)Nc1cc(C(C)(C)C)nn1-c1ccc(OC)cc1 | 32 | 26 |
| COc1ccc(NS(=O)(=O)c2cc(C(=O)O)ccc2C)c(C(F)(F)F)c1 | 6 | 9 |
| Cc1ccc(F)c(N2CCN(C(=O)C3CCC3)C(C)C2=O)c1 (stereo not drawn) | 1 | -7 |
| COc1ccccc1-c1cc(C(=O)N2CCN(c3ccccc3F)CC2)nc2c(-c3ccccc3)c(C)nn12 | 15 | 9 |
| CCOc1ccc(C(=O)Nc2nc(C)c(C(=O)OC)s2)cc1[N+](=O)[O-] | 8 | 2 |
| CCc1ccc(S(=O)(=O)Nc2ccc(-c3ccc(S(C)(=O)=O)nn3)cc2)s1 | 8 | 14 |
| O=S(=O)(Nc1ccccc1-n1cncn1)c1ccc2c(c1)CCCC2 | -4 | -3 |
| CCOC(=O)c1ccc2c(c1)nc(SCc1ccc(C(F)(F)F)cc1)n2CCCOC(C)C | 14 | 13 |

Next structures.
| structure | NPYLR7 agonist max-min | NPYLR7 agonist |
| --- | --- | --- |
| CCn1nccc1C(=O)N(CCN(C)C)c1nc2c(OC)cccc2s1 | 2 | 0 |
| CCCCOCC(O)CN(Cc1c(-c2ccccc2)nn(C)c1Oc1cccc(C)c1)CC1CC1 (stereo not drawn) | 8 | 9 |
| CN1CCN(S(=O)(=O)c2cc(C(=O)O)cc(-c3cccnc3)c2)CC1 | 2 | 5 |
| Cc1nn(C2CCS(=O)(=O)C2)c2nc(-c3ccc(F)cc3)cc(C(=O)NCCc3ccccc3)c12 (stereo not drawn) | 9 | 3 |
| COC(=O)c1ccc(NC(=O)c2ccoc2)c(OCC(F)(F)F)c1 | 10 | -1 |
| O=C(Nc1cccc2ccccc12)O[C@@H]1CO[C@H]2[C@@H]1OC[C@@H]2Nc1nccc(C2CCCC2)n1 | -18 | -10 |
| CC(C)CN(CC(=O)N(CCc1c[nH]c2ccccc12)Cc1ccc(Cl)c(Cl)c1)C(=O)C(Cl)Cl | 10 | 2 |
| Cc1noc(C)c1C(=O)NCCc1ccc(C(F)(F)F)cc1 | 2 | -1 |
| CN1CCC(CN2CCC(c3nn(C)c(=O)n3-c3ccccc3)CC2)CC1 | 5 | 5 |
| CCOc1ccc(S(=O)(=O)CCOCCO)cc1 | 0 | 1 |
| COc1ccc(C(=O)N2CCN(CCCOC(c3ccc(Cl)cc3)c3ccc(Cl)cc3)CC2)cc1C(F)(F)F | 4 | 5 |
| COc1ccc(S(=O)(=O)NC(C)CCc2ccco2)cc1Br (stereo not drawn) | 0 | 1 |
| COc1ccc(CN2CCN(Cc3cccn3-c3ccccn3)CC2CCO)cc1C (stereo not drawn) | -4 | 0 |
| O=C1CN(C(=O)CCSc2ccccc2F)CCN1 | 5 | 7 |
| Cc1cccn2c(=O)c(C(=O)NCc3ccccc3Cl)c(O)nc12 | 14 | 2 |
| CC(C)c1ccc(SCC(=O)NCC2CCC3(CC2)OCCO3)cc1 | -2 | 0 |
| COc1ccc2c(c1OC)C(=O)N(c1cccc(Cl)c1)C2=O | 6 | 10 |
| CCc1cn[nH]c1C1CCCN(C(=O)C(=O)CC(C)C)C1 (stereo not drawn) | -1 | 1 |
| Cc1ccc(NC(=O)Cn2c(O)c(N=NC(=O)CNC(=O)c3ccccc3)c3ccccc32)cc1 | -1 | -2 |
| CC(C)CC(=O)Nn1cnc2c(cnn2-c2ccccc2)c1=O | 0 | 2 |
| C[C@@H]1C(=O)CC2C(C)(C)CCC[C@]2(C)[C@@]1(O)CCc1ccoc1 (stereo partly drawn) | 6 | 7 |
| Cc1cccn2c(=O)c(/C=N\Nc3ccccc3)c(Nc3cccc(Cl)c3)nc12 | 11 | 3 |
| Cc1nc(CN2C(=O)c3ccccc3S2(=O)=O)sc1C(=O)Nc1ccccc1 | -3 | -3 |
| CN(C)CCNC(=O)c1ccc(CSc2nc(-c3ccccc3)cc(N3CCN(c4cccc(C(F)(F)F)c4)CC3)n2)cc1 | 11 | 5 |
| COc1cccc(-c2nnc(NC(=O)C3CCCN3C(=O)Nc3cccc(Cl)c3Cl)s2)c1 (stereo not drawn) | 10 | 7 |
| CC(C)c1ccc(-c2nn3c(=O)[nH]c4ccccc4c3nc2=O)cc1 | 4 | 6 |
| COc1ccc(C)cc1C(=O)OCC(=O)c1[nH]c(C)c(C(C)=O)c1C | -2 | 5 |
| CC#CCN1C(=O)NC(CCc2ccccc2)(C2CCN(C(=O)C3CCCCC3)CC2)C1=O (stereo not drawn) | -2 | 0 |
| CCC(C)C(NC(=O)C(c1ccccc1)c1ccccc1)C(=O)Nc1nnc(-c2cccc(Cl)c2)s1 (stereo not drawn) | 16 | 18 |
| Cc1cc(F)c(S(=O)(=O)NC(=O)c2cscn2)cc1F | 955 | -4 |
| O=C(Nc1cnc2n1CCCC2)c1cc(=O)nc2sccn12 | 10 | 10 |
| COc1ccc(CCN(C)C(=O)c2ccc(CSc3nc(Cl)cc(N4CCN(c5ccccc5F)CC4)n3)cc2)cc1OC | 23 | 17 |
| COCCN(Cc1cccs1)C(=O)c1ccc(OC)c(F)c1F | 16 | -1 |
| CN(C)c1ccc(C(=O)NCc2cc(Cl)c3c(c2)OCCCO3)cc1 | 3 | 6 |
| CCOC(=O)C(CC)Sc1nnc(NC(=O)c2ccc(Br)cc2)s1 (stereo not drawn) | 20 | 17 |
| Cc1noc(C)c1S(=O)(=O)Nc1cccc(F)c1 | 3 | 10 |

This is a subset, so the mix of outcomes need not match the whole.
